Assay outcomes: PubChem, National Center for Advancing Translational Sciences (NCATS)
gsp antag = antagonizes gsp, the McCune-Albright syndrome mutation; gsp-mutant cells, cAMP HTRF, 30 min; control for the full effect not named in the record; Potency, µM (titrated, usually from 76.9 µM), inactives show top-dose activity change, negative = inhibition, usual class: inhibitors; actives 0.4% (n = 340,000); AID 624288; active = falling curve of any shape with a large fitted effect; inconclusive = falling curve, mostly with a smaller effect; inactive = flat or rising curve; cell line not stated here;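 note: intracellular cAMP measured with PDE inhibitor Ro 20-1724 present during compound exposure; potency is the fitted concentration of half-maximal effect; % is set by controls: 0 for no effect and ±100 for the full control effect; nearly all actives have a fitted effect of over 65% in size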
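Cells, 2000/well, grown 16–24 h in DMEM 10% FBS with 0.5 mg/ml G418, then compounds plus […] (300 uM addition stock), 30 min at 37C. cAMP read by HTRF (cAMP-d2 and anti-cAMP antibody-K in lysis buffer) after 30 min RT.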
gsp ag = gsp mutant agonism; actives 0.13% (n = 340,000); Potency, µM (highest dose often 76.9 µM), for inactives: at the highest dose activation (cAMP increase), hits mostly activators; gsp mutant cells, cAMP HTRF, 30 min; control for the full effect not named in the record; active = well fitted activation curve with a large enough effect; inconclusive = small, poorly fitted or top-dose-only effect, or another doubt; inactive = no such curve, though single readings can be large or run the other way; cell line not stated here;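 note: phosphodiesterase inhibitor Ro 20-1724 added with compounds to block cAMP breakdown; potency is the fitted concentration of half-maximal effect; nearly all actives have a fitted effect of over 60% in size; about a fifth of the inactives were tested at one dose only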
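Cells stably selected in G418 were plated at 2000/well, grown 16-24 hr, then given compounds in DMSO with the PDE inhibitor […] (300 uM solution added) for 30 min at 37C; cAMP was read by HTRF.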
Six1-Eya2 blk = blocks human Six1 binding to Eya2; activity change, % (test concentration not listed); AlphaScreen GST-Six1/His-Eya2 binding, biochemical; stronger effect = lower value; control for the full effect not named in the record; Q15475+O00167; actives 0.56% (n = 360,000); AID 651725; in the data active = activity change below about -65%; inconclusive = about -30% to -65%; inactive = above about -30%; note: % is set by controls: 0 for no effect and ±100 for the full control effect; compound concentration not given in the record
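Homogeneous AlphaScreen proximity assay pairing GST-Six1 with His-tagged Eya2 (added as 5X mix: 250 nM and 500 nM) in 50 mM Tris pH 8.0, 300 mM NaCl, 1 mM TCEP. Glutathione donor and nickel acceptor beads; 1 h, 37 °C, dark.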
D2 PAM = positive allosteric modulators of human D2 dopamine receptor | DiscoveRx D2 beta-arrestin cells, luminescence, 90 min; 100% = 57 uM dopamine signal | P14416 | potentiation, % (test concentration not listed) | actives 0.23% (n = 360,000); active = potentiation of 50% or more; inconclusive = 30% to 50%; inactive = 30% or less;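 note: compound concentration not given in the record; tested on top of an EC20 dose of dopamine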
Target sequence (P14416 whole entry, looked up): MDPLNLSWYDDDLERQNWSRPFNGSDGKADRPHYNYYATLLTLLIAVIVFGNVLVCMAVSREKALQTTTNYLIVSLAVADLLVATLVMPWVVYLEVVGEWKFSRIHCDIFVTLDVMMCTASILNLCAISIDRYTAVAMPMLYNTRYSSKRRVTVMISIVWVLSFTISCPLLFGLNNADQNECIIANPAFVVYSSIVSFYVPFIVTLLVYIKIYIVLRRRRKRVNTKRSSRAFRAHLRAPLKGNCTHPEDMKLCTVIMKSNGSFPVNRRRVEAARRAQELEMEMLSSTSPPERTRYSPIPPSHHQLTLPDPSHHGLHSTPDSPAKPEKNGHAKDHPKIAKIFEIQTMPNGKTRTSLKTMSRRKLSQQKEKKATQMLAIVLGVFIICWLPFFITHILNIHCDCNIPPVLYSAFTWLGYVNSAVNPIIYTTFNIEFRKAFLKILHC
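D2 cells co-treated with compound plus 50 nM dopamine (EC20) for 90 min at 37 deg C to detect potentiation. Beta-arrestin recruitment was read as enzyme-fragment luminescence after 1 h at ambient temperature. Full response was set by 57 uM dopamine.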
D2 ag = activates the human D2 dopamine receptor | DiscoveRx PathHunter D2 beta-arrestin, luminescence, 90 min; 100% = 57 uM dopamine signal | activation, % (no concentration beside the values) | actives 0.084% (n = 360,000) | AID 624465; in the data active = activation above about 40%; inconclusive = about 15% to 40%; inactive = below about 15%; note: compound concentration not given in the record; the text of the record calls up to 30% inactive
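DiscoveRx PathHunter D2 beta-arrestin cells (2,100/well) attached overnight, then compound-stimulated 90 min at 37 C in HBSS/10 mM HEPES/0.1% Tween-20 buffer; beta-galactosidase complementation read by luminescence after 1 h at ambient temperature. Dopamine 57 uM final (EC100) as control.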
CtBP-E1A blk = blocks the CtBP interaction with E1A; AlphaScreen GST-E1A/His-CtBP binding, 1536-well; stronger effect = lower value; control for the full effect not named in the record; AID 651724; actives 0.49% (n = 340,000); activity change, % (test concentration not listed); in the data active means activity change below about -65%; inconclusive means about -30% to -65%; inactive means above about -30%; note: % is set by controls: 0 for no effect and ±100 for the full control effect; compound concentration not given in the record
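Homogeneous bead-based format: GST-tagged E1A captured on glutathione donor beads, His-tagged CtBP on nickel acceptor beads; compounds precede bead addition by 2 h at 37 °C.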
Starred values were filed as active, the others as inactive; ? = inconclusive; . = not tested or not shown; [ ] = dose if it differs, or a comment.

(1) COc1ccc(-c2nnc(SCC(=O)c3[nH]c(C)c(C(C)=O)c3C)o2)cc1
(2) CC1CCCC(C)N1CCCNC(=O)Cn1ncc2c([nH]c3ccccc32)c1=O (centres undefined)
(3) CCc1ccc(/C=N/NC(=O)c2nnn(-c3nonc3N)c2CN2CCc3ccccc32)cc1
(4) O=C(COc1ccc(Cl)cc1)NCc1n[nH]c(=O)c2ccccc12
(5) O=C(OCC(=O)N1CCCc2ccccc21)c1ccc(F)c(S(=O)(=O)N2CCOCC2)c1
(6) COc1ccc(C2=NN(CCC(=O)NC3CCC(C)CC3)C(=O)CC2)cc1 (centres undefined)
(7) OC(COc1ccccc1)CN1CCCCCC1 (centres undefined)
(8) Cc1ccc2nc(-c3ccccc3)c(CN3CCN(c4ccccc4F)CC3)n2c1

assay / entry	1	2	3	4	5	6	7	8
gsp antag	?	4%	?	-4%	-7%	4%	9%	?
gsp ag	1%	30%	0%[15.4 µM]	-8%[15.4 µM]	15%[15.4 µM]	-3%	-14%[15.4 µM]	-1%
Six1-Eya2 blk	0	-1	-16	-13	3	3	-1	-5
D2 PAM	-4	-9	-4	-9	4	-6	-13	-3
D2 ag	0.8	1.5	1.1	-5.6	0.2	-2.5	1.2	-3.1
CtBP-E1A blk	-1	0	-24	0	-17	2	-14	.

(9) CN1C(C)(C)CC(=NOC(=O)c2ccccc2)CC1(C)C
(10) CCc1ccc(OCC(=O)Nc2ccc(CN3CCCCC3)cc2)cc1
(11) COc1cc(C(=O)Nc2nc(-c3cc(C)ccc3C)c(C)s2)ccc1OCC(=O)Nc1ccc(F)cc1
(12) Cc1nn(CC#N)c(=O)n1-c1ccccc1F
(13) COc1ccc(C(=O)CSc2nnc3ccccn23)cc1OC
(14) Cc1ccc(S(=O)(=O)N(C)C[C@@H]2OCc3cnnn3CCCC(=O)N([C@H](C)CO)C[C@@H]2C)cc1
(15) CC(=O)[C@@]1(O)CCC2C3CC[C@H]4C[C@@H](O)CC[C@]4(C)C3CC[C@@]21C (some centres undefined)
(16) C=CCNC(=O)c1onc(CSc2cccc(OCC)c2)c1C(=O)O

assay / entry	9	10	11	12	13	14	15	16
gsp antag	-8%	8%	5%	8%	5%	.	7%	-5%
gsp ag	-5%	-19%	?	8%	-3%	-101%[inhibitor]	18%	.
Six1-Eya2 blk	-1	-1	-1	6	-6	-3	4	-5
D2 PAM	17	-8	8	-3	-7	-3	-5	-36
D2 ag	1.2	-5.6	0.8	0.6	-3.5	-5.4	-0.7	-0.6
CtBP-E1A blk	10	-2	-7	3	.	3	10	5

(17) CC(O)c1nc2ccccc2n1C1CCCCC1 (centres undefined)
(18) COc1ccc(OCCN2C(=O)NC3(CCc4ccccc4C3)C2=O)cc1 (centres undefined)
(19) CCc1ccc(C(=O)N2CCN(c3ccc(F)cc3)CC2)s1
(20) O=C(CN(CC1CCCO1)C(=O)CNS(=O)(=O)c1ccccc1)NCc1ccc(F)cc1 (centres undefined)
(21) Cc1cc(N2CCN(S(=O)(=O)Cc3ccccc3)CC2)n2ncnc2n1
(22) CC(C)(C)OC(=O)C(Cc1ccc(OC(C)(C)C)cc1)NC(=O)CNC(=O)OCc1ccccc1 (centres undefined)
(23) CC(C)(C)OC(=O)C[C@H]1C/C=C\C[C@H](CC(=O)N[C@H](CO)Cc2ccccc2)C(=O)N[C@@H](Cc2ccccc2)COC1=O
(24) CC(=O)N1CCN(c2ccc(Oc3ccc([N+](=O)[O-])c(C(F)(F)F)c3)cc2)CC1

assay / entry	17	18	19	20	21	22	23	24
gsp antag	1%	13%	8%	3%	1%	-15%	4%	-19%
gsp ag	-30%	3%	?	-3%[15.4 µM]	-6%	-22%	.	3%
Six1-Eya2 blk	1	0	-8	-8	1	1	-7	-18
D2 PAM	-5	10	-11	1	-7	-22	2	0
D2 ag	-0.5	-0.5	-3.4	-0.5	4.2	-4.0	-2.3	-2.8
CtBP-E1A blk	-9	0	5	7	-8	10	4	-17

(25) COc1ccccc1N(C)S(=O)(=O)c1ccc(C(=O)NCC(C)C)cc1
(26) S=C1SCCN1Cc1ccccc1
(27) O=C(Nc1ccccn1)c1cccc(S(=O)(=O)N2CCCc3ccccc32)c1
(28) CC(=O)c1ccc(N2CCN(C(=O)c3ccc(C(=O)c4ccccc4)cc3)CC2)cc1
(29) CC(=O)c1sc(N/N=C2\CC3CCC2(C)C3(C)C)nc1C (centres undefined)
(30) Cc1ccc2c(c1)N(CC(=O)NCCCN1CCN(C)CC1)C(=O)CO2
(31) CN(C)c1ncnc2c1nnn2C1OC(CO)C(O)C1O (centres undefined)
(32) COc1cccc(-c2ccc(SCC(=O)NC3CCCC3)nn2)c1

assay / entry	25	26	27	28	29	30	31	32
gsp antag	-10%	-3%	-28%	7%	-19%	-7%	.	8%
gsp ag	-46%[inhibitor]	1%	6%	-54%[inhibitor]	5%[15.4 µM]	10%[15.4 µM]	17%	-42%[inhibitor]
Six1-Eya2 blk	7	5	-1	-1	0	-17	-2	-12
D2 PAM	-6	-17	0	1	-5	-13	-10	-3
D2 ag	-0.5	0.5	5.3	-0.2	-5.8	-4.9	-11	-1.7
CtBP-E1A blk	3	9	-10	8	-25	0	-17	0

(33) CCCCNc1nc(C)c(C(C)=O)cc1C#N
(34) COc1cccc(NC(=O)CSc2nc3c(sc4ccccc43)c(=O)n2CCN(C)C)c1
(35) Cc1cc(C)nc(NC(=O)c2cnc3sccn3c2=O)n1
(36) COc1ccc(NC(=O)c2cc3c(=O)n4ccccc4nc3n2C)cc1OC
(37) COC(=O)C1=C(C)N(Cc2ccccc2)C(=NCc2cccc(C(F)(F)F)c2)N[C@H]1c1cccc(F)c1
(38) O=C1OC(CN2CCOCC2)CN1N=Cc1ccc([N+](=O)[O-])o1 (centres undefined)
(39) CC(C)(C)NC(=S)NCc1ccco1
(40) Cc1ccc(CN(C)c2nc(-c3cccnc3)nc3ccccc23)o1

assay / entry	33	34	35	36	37	38	39	40
gsp antag	6%	4%	5%	5%	1%	-2%	-5%	-6%
gsp ag	16%	-1%[15.4 µM]	18%	0%	.	.	-33%[inhibitor]	-23%[15.4 µM]
Six1-Eya2 blk	4	-15	1	-11	-2	3	1	4
D2 PAM	12	-5	-2	2	-9	17	2	1
D2 ag	5.4	2.7	-4.6	3.6	0.2	-1.6	-2.6	-3.9
CtBP-E1A blk	-1	-9	3	-13	-23	-12	3	-26

(41) CC(C)NS(=O)(=O)c1ccc(CCC(=O)NCc2ccc3c(c2)OCO3)cc1
(42) Cc1ccccc1C(=O)O
(43) CC1=NN(C(=O)CSCc2ccccc2)C(O)(c2ccccc2)C1 (centres undefined)
(44) CCCCn1c(=O)[nH]c(=O)c2c1nc(-c1ccc(C)c([N+](=O)[O-])c1)n2CC
(45) Cc1cc(C)n2nc(C(=O)OCC(=O)c3ccccc3)nc2n1
(46) Clc1ccc(Nc2nc(NCCN3CCOCC3)nc(N3CCOCC3)n2)cc1
(47) Cc1ccc(C(=O)N2CC(C)OC(C)C2)cc1S(=O)(=O)N1CCCCC1 (centres undefined)
(48) Cc1nn(-c2ccc(F)cc2)c2sc(C(=O)OC3CCOC3=O)cc12 (centres undefined)

assay / entry	41	42	43	44	45	46	47	48
gsp antag	1%	7%	2%	-6%	6%	-10%	-1%	6%
gsp ag	-2%	.	9%	?	-20%[15.4 µM]	-48%[inhibitor]	7%	?
Six1-Eya2 blk	1	5	1	-11	11	-5	1	0
D2 PAM	-3	-10	-15	1	-1	-7	1	-7
D2 ag	-3.7	-3.6	-18	0.8	-1.4	3.5	0.2	-1.6
CtBP-E1A blk	-3	0	-13	1	-10	-9	10	1

Full records, quoted from the list. Screens in order: gsp antag | gsp ag | Six1-Eya2 blk | D2 PAM | D2 ag | CtBP-E1A blk
`Cc1nn(-c2ccc(F)cc2)c2sc(C(=O)OC3CCOC3=O)cc12` (centres undefined) as listed: 6% | ? | 0 | -7 | -1.6 | 1
`Clc1ccc(Nc2nc(NCCN3CCOCC3)nc(N3CCOCC3)n2)cc1` as listed: -10% | -48%[inhibitor] | -5 | -7 | 3.5 | -9

(further entries)
(49) CCOc1ccc(NC(=NCc2ccc3c(c2)OCO3)SC2CC(=O)N(c3ccccc3)C2=O)cc1 (centres undefined)
(50) COC(=O)c1c(-c2ccc(C)cc2)csc1NC(=O)C1CC=CCC1C(=O)O (centres undefined)
(51) CCn1nnc(NC(=S)NC(=O)c2ccc(-c3cccc(Cl)c3)o2)n1
(52) Cc1cc(F)ccc1S(=O)(=O)Nc1c(C)n(C)n(-c2ccccc2)c1=O
(53) Cc1ccc(S(=O)(=O)N2CCCCC2)c(C)c1NS(C)(=O)=O
(54) CC(CNC(=O)CCS(=O)(=O)c1ccc2c(c1)NC(=O)CO2)c1ccccc1 (centres undefined)
(55) FC(F)(F)c1cnc(N2CCCN(C(=S)Nc3ccccc3)CC2)c(Cl)c1
(56) CNC(=O)COc1ccc(Nc2nnc(-c3ccc(C)c(S(N)(=O)=O)c3)c3ccccc23)cc1
(57) CCOc1ccc(N(C(=O)c2ccc(S(=O)(=O)N3CCCC3)cc2)C2C=CS(=O)(=O)C2)cc1 (centres undefined)

assay / entry	49	50	51	52	53	54	55	56	57
gsp antag	14%	?	-17%	10%	9%	4%	-9%	14%	-5%
gsp ag	-13%	-1%	25%[15.4 µM]	-55%[inhibitor]	10%	?	19%[15.4 µM]	-14%[15.4 µM]	-5%
Six1-Eya2 blk	-7	-2	?	1	3	2	1	-23	3
D2 PAM	-3	-6	-15	-1	-8	1	-11	-5	-11
D2 ag	-4.4	-1.3	-6.6	-1.4	1.8	-5.6	0.9	-1.3	-0.4
CtBP-E1A blk	-5	-6	?	3	9	-2	2	-9	7

Sorted by value in D2 ag (lowest first): 4 from the list above
(52) Cc1cc(F)ccc1S(=O)(=O)Nc1c(C)n(C)n(-c2ccccc2)c1=O
(50) COC(=O)c1c(-c2ccc(C)cc2)csc1NC(=O)C1CC=CCC1C(=O)O (centres undefined)
(57) CCOc1ccc(N(C(=O)c2ccc(S(=O)(=O)N3CCCC3)cc2)C2C=CS(=O)(=O)C2)cc1 (centres undefined)
(53) Cc1ccc(S(=O)(=O)N2CCCCC2)c(C)c1NS(C)(=O)=O

assay / entry	52	50	57	53
gsp antag	10%	?	-5%	9%
gsp ag	-55%[inhibitor]	-1%	-5%	10%
Six1-Eya2 blk	1	-2	3	3
D2 PAM	-1	-6	-11	-8
D2 ag	-1.4	-1.3	-0.4	1.8
CtBP-E1A blk	3	-6	7	9
